AID504770: E. coli YBA685 growth inhibition, screen for V. cholerae RctB inhibitors; E. coli YBA685 rctB-dependent plasmid, OD600 growth, 3 h; active compounds read low; z-score (test concentration not listed); 130,000 compounds, 0.27% hits; AID 504770;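 active means z-score under -2 on both plates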;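 further: wells of about 30 µL received 100 nL stock; score is relative to mean and SD of the test wells; the first replicate is given; strong numbers were not always called active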
Ba CapD inh: blocks the Bacillus anthracis CapD enzyme. AID 492967. z-score (test concentration not listed). 140,000 compounds, 0.23% hits. purified CapD enzyme, fluorescence intensity read-out; active compounds read low; some hits fall short of the stated cut;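 active means z-score under -4 in either of two replicates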;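 further: stock transfer was 100 nL into about 40 µL; score is relative to mean and spread of the plate; one replicate is shown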
* = called active by the depositor; i = inactive; nt = no result given.

Sequence of screens – AID504770 | Ba CapD inh
- Cc1ccc(Oc2ccc3c(c2)C(=O)N(CC2CCCO2)C3=O)cc1 (configuration not stated)
    0 | 2.5
- O=c1c(Cc2c(F)cccc2Cl)c(O)ccn1Cc1ccc2c(c1)OCO2
    nt | -0.095
- Cc1ccccc1C(C(=O)Nc1ccc(F)cc1)N(Cc1ccco1)C(=O)Cn1nnc2ccccc21 (configuration not stated)
    2.3 | nt
- NS(=O)(=O)c1ccc(CC(=O)O)cc1
    0.55 | nt
- COc1cc(OC)cc(C(=O)N[C@H](C(=O)NCc2ccco2)C(C)C)c1
    -0.15 | nt
- O=C1/C(=C/c2cccc(Br)c2)SC(=S)N1CC(=O)N1CCCc2ccccc21
    0.5 | 0.055
- O=S(=O)(c1cccc2nsnc12)N1CCOCC1
    -0.5 | nt
- CN(C)c1ccc(C(CNC(=O)NC2CCCCC2)N2CCc3ccccc32)cc1 (configuration not stated)
    -1.35 | -0.515
- COc1cc(CN2CC(C)CC(C)C2)cc(I)c1O (configuration not stated)
    1.5 | 0.04
- CN(C)/C=C\C(=O)C(Cc1c(F)cccc1Cl)C(=O)/C=C/N(C)C (configuration not stated)
    nt | -3.42
- O=c1c2c3c(sc2n2cnnc2n1CCc1ccccc1)CCCC3
    0.65 | -0.32
- CC(OC(=O)C1CCN(C(=O)Nc2ccccc2)CC1)C(=O)Nc1ncc(Cl)cc1Cl (configuration not stated)
    -0.3 | nt
- CN(C)/C=C/C=C1\CCCC1=O
    -0.35 | -8.96*
- CC1CN(S(=O)(=O)c2sc(Cl)cc2Br)CC(C)O1 (configuration not stated)
    nt | -0.82
- CN(C)c1ccc2c3c(ccc(N(C)C)c13)C1(C(F)(F)F)OC2(C(F)(F)F)c2ccc(N(C)C)c3c(N(C)C)ccc1c23
    nt | -0.105
- CC1SC2(C(=O)N(CN3CCCCC3)c3ccccc32)N(c2cccc(Cl)c2)C1=O (configuration not stated)
    nt | -0.165
- CC(=O)Nc1nnc(C23CC4CC(CC(C4)C2)C3)s1
    0.5 | i
- CCOC(=O)C1=C(C)NC2=C(C(=O)C(C(=O)OCC)C(c3ccccc3OC)C2)C1c1cccc(Br)c1 (configuration not stated)
    nt | 5.08
- O=c1ccc(-c2ccc(S(=O)(=O)Nc3ccccc3)o2)n[nH]1
    0.1 | -0.05
- CCC(=O)Nc1c2c(nn1-c1ccc(C)cc1C)CSC2
    -0.55 | nt
- C=CCN(CC=C)C(=S)NC(=O)c1ccccc1
    nt | -0.11
- Cc1c(C(=O)Nc2ccc(C(C)C)cc2)sc2ncn(CC(=O)Nc3cccc(C(F)(F)F)c3)c(=O)c12
    nt | 0.5
- CC(C)(C)c1ccc(OCC(=O)N2CCN(c3ccc(O)cc3)CC2)cc1
    -0.8 | 0.995
- CC1(C)CC(=O)C2=C(C1)N(CC(=O)O)C1=C(C(=O)CC(C)(C)C1)C2c1ccccc1
    -0.7 | nt
- COc1ccc2cc3c(NC(=O)COc4cccc(C)c4)n[nH]c3nc2c1
    -0.4 | 1.31
- COc1cccc(NC(=O)Cc2noc3ccc(C)cc23)c1
    -1.75 | -1.25
- Cc1c(Cl)cccc1NC(=O)NCC(C)C
    -1.25 | 0.15
- CC(C)c1ccc(-c2nnn(CC(=O)c3ccc(NS(C)(=O)=O)cc3)n2)cc1
    0.15 | nt
- Clc1ccc2c(c1)NNc1nncn1-2
    0.4 | -0.855
- O=C(O)c1ccccc1Nc1ccccc1C(=O)O
    0.3 | -2
- O=S(=O)(c1sc(Br)cc1Br)N1CCSCC1
    0.9 | 23.5
- COc1ccc(OC)c(S(=O)(=O)NC2CC2)c1
    0.05 | 0.31
- CC1(C)CC(=O)C=C(Nc2ccc3c(c2)OCO3)C1
    -0.75 | nt
- O=C(Cc1cccs1)NCc1ccc(Cl)cc1
    -0.35 | 0.06
- COc1ccc(CN(Cc2ccco2)S(=O)(=O)c2ccc(C)c(Cl)c2)cc1Br
    nt | -0.005
- O=c1c2ccccc2c(C=NCCCN2CCOCC2)c(O)n1Cc1ccccc1
    -0.55 | nt
- CCCCNC(=O)c1cccnc1SCC(=O)Nc1ccccc1OC
    nt | -0.43
- CCOC(=O)c1ccc2c(c1)CC/C(=C\c1ccc(Cl)cc1Cl)C2=O
    -0.35 | -0.03
- Cc1ccc(S(=O)(=O)c2cnc(-c3cccnc3)nc2-c2cccnc2)cc1
    nt | -0.145
- Cc1nc(Cc2nnc(SCC(=O)NC(=O)c3cccn3C)o2)cs1
    0.1 | nt
- O=C(Nc1cc2ccccc2s1)N1CCN(Cc2c(F)cccc2Cl)CC1
    0.25 | 0.02
- CN1CCN(c2ccc(S(C)(=O)=O)cc2NC(=O)C2CCN(c3ccc(C(F)(F)F)cn3)CC2)CC1
    nt | 7.29
- CCOC(=O)Cc1csc(/N=C/c2nc(-c3ccc(Br)cc3)oc2O)n1
    nt | -0.215
- Nc1[nH]c(N=NC(=O)c2cccc(S(=O)(=O)N3CCOCC3)c2)c2ccccc12
    -0.35 | nt
- CCN(CC)S(=O)(=O)c1cc(C(=O)Nc2cccc3c2C(=O)NC3=O)ccc1Cl
    -0.4 | nt
- Fc1ccccc1-c1csc(-c2cccnc2)n1
    -0.2 | 1.94
- N#Cc1nc(COc2ccccc2)oc1N1CCCCC1
    -0.7 | -0.1
- N#Cc1cc(C(=O)c2ccccc2O)coc1=O
    -2.05 | nt
- C=C1c2ccccc2N=C(SCC(=O)Nc2cc(C)ccc2OC)N1C
    1.6 | nt
- CCC(C)NC(=S)Nc1ncccc1C(=O)OC (configuration not stated)
    0.3 | 0.25
- O=C(Nc1ccc(N2C(=O)C=CC2=O)cc1Cl)c1ccco1
    -0.3 | nt
- COc1ccc(C2CC(c3ccco3)=Nc3ccccc3S2)cc1 (configuration not stated)
    nt | -0.4
- CN(Cc1ccccc1)S(=O)(=O)c1ccc(N2CCOCC2)c(C(=O)NC2CCN(Cc3ccccc3)CC2)c1
    nt | 0.3
- C/C(=N\NC(N)=S)c1ccc(Cl)cc1
    1.2 | nt
- C=C(C)CN(CC)c1nc(N)c2c(N)nc3c(c2c1C#N)CC(=O)N3CC1CCCO1 (configuration not stated)
    -0.8 | nt
- CSC1=C(C#N)C(c2ccc3c(c2)OCO3)C2=C(CCCC2=O)N1 (configuration not stated)
    -0.75 | -0.14
- COc1cccc(C(=O)NCCSc2ccc(C)cc2)c1
    0 | -0.155
- C#CCN1C(=O)S/C(=C/C=C/c2ccc(N(C)C)cc2)C1=O
    0.85 | -0.895
- CCC1(C)CC(C(CCN)c2ccc(C)cc2)CCO1 (configuration not stated)
    -0.75 | 0.075
- CCCN1CCN(CCCNC(=O)C2CCN(c3ncnc4c3sc3cccc(F)c34)CC2)CC1
    -0.7 | 5.07

Later entries.
Sequence of screens – AID504770 | Ba CapD inh
- Cn1nc(CC(=O)NN)c2ccccc2c1=O
    -1.35 | 0.435
- CC(C)(C)c1ccc(-c2nnc(SCCC#N)n2C2CCCC2)cc1
    1.15 | nt
- O=C(CN(c1ccccc1)S(=O)(=O)c1ccc(F)cc1)N1CCOCC1
    nt | -0.7
- Clc1ccc(OCc2nnc3c4cnn(-c5ccccc5)c4ncn23)cc1
    -1.2 | 0.195
- S=C(NCc1ccco1)Nc1ccc2nc(-c3ccccn3)c(-c3ccccn3)nc2c1
    -0.15 | -0.085
- CC1CCCC(C)N1C(=O)COC(=O)c1ccc(-n2cccc2)cc1 (configuration not stated)
    0.4 | nt
- Cc1cc(C)c(NS(=O)(=O)c2ccc(NC(=O)c3sc4ccccc4c3Cl)cc2)c(C)c1
    nt | -0.885
- ON(Cn1nnc2ccccc21)Cn1nnc2ccccc21
    2.25 | nt
- C(=C\c1ccccc1)/CN1CCN(c2ncnc3sccc23)CC1
    0.6 | nt
- O=C(CSc1nnnn1-c1ccccc1)NCC1CCCCC1
    -0.2 | nt
- COc1cc(C2c3c(oc4ccccc4c3=O)C(=O)N2c2nnc(C)s2)ccc1O (configuration not stated)
    0.65 | 0.01
- CCOC(=O)c1ccc(NC(=O)Cn2cnc3c2c(=O)n(C)c(=O)n3C)cc1
    nt | 0.665
- FC(F)(F)c1ccc(Sc2ccc3nnc(C(F)(F)Cl)n3n2)nc1
    nt | 0.285
- CCOc1cc(C(=O)Nc2nnc(SCC(=O)Nc3nnc(C(C)C)s3)s2)cc(OCC)c1OCC
    nt | 0.69
- Clc1ccc(Nc2ccc(-c3ccccc3)nn2)cc1
    3.4 | -1.5
- OCCN1CN(c2nc3ccccc3s2)CN(c2nc3ccccc3s2)C1
    -0.5 | 0.64
- COC(=O)CCSc1ncc(C(F)(F)F)cc1Cl
    -0.2 | 0.045
- O=C(O)CCN1C(=O)/C(=C2/C(=O)N(CC(=O)O)c3ccc(Br)cc32)SC1=S
    nt | -1.06
- O=C(Cn1nnc(-c2ccccc2)n1)N/N=C1\CCCc2ccccc21
    1.45 | nt
- Cc1sc(-n2cccc2)c(C(=O)OCc2ccc(C#N)cc2)c1C
    -1.8 | nt
- O=C(NCCc1ccccc1)Nc1ccccc1
    1.35 | -0.715
- COc1cccc(OCC(=O)NCc2ccccc2)c1
    0.9 | 0.3
- Cc1ccc(OCC(=O)OC2CCCN(C)C2)cc1 (configuration not stated)
    -0.5 | 0.085
- COc1ccc(C(c2c(C)n(C)n(-c3ccccc3)c2=O)c2c(C)n(C)n(-c3ccccc3)c2=O)cc1Br
    nt | -0.37
- CCn1c2ccccc2c2cc(CN3CCC(NC(=O)OCc4ccc(F)cc4F)C3)ccc21 (configuration not stated)
    nt | 13.8
- Cc1nc2oc(C(=O)c3ccccc3)c(N)c2c2c1COC(C)(C)C2
    -0.8 | -0.3
- CN(C)c1ccc(CC(C#N)C#N)cc1
    1.65 | -0.1
- Cc1cccc(-c2nc3cc(C)ccc3o2)c1
    1.05 | 1.12
- COc1ccc(C2C(C#N)=C(SCC(=O)Nc3ccccc3C)NC3=C2C(=O)CC(C)(C)C3)cc1 (configuration not stated)
    nt | 11.8
- Cc1ccc(-c2nnn(CC(=O)Nc3cccc4cccnc34)n2)o1
    0.15 | nt
- COc1ccc2cc(Br)ccc2c1CC(=O)Nc1nccs1
    0.05 | 0.63
- Cc1ccc(S(=O)(=O)N2CCCC2C(=O)Nc2cc(C)on2)cc1 (configuration not stated)
    -0.15 | nt
- NS(=O)(=O)c1ccccc1Sc1ccccc1C(=O)O
    -0.15 | -0.485
- O=C(Nc1ccccc1Cl)c1cccs1
    -1.6 | nt
- Cc1onc(-c2ccccc2)c1C(=O)OCC(=O)c1ccccc1
    nt | -0.015
- CC(Oc1ccc(F)cc1)C(=O)Nc1cccc(-c2nn[nH]n2)c1 (configuration not stated)
    -0.85 | -1.23
- N#Cc1ccc(OCC(=O)N2CCCC2=O)cc1
    -1.05 | nt
- Cc1ccccc1-n1c(=S)sc2c1nc(SCC(=O)C(C)(C)C)n1c3ccccc3nc21
    nt | -0.41
- CCSCCOC(=O)C1=C(C)NC2=C(C(=O)CC(c3ccc(OC)cc3)C2)C1c1ccc(O)c(OC)c1 (configuration not stated)
    nt | 5.78
- COc1ccc(C2(O)CN(c3ccccc3)C3=[N+]2CCCC3)c(F)c1 (configuration not stated)
    nt | 0.465
- c1csc(-c2cc3ccccc3[nH]2)c1
    nt | 68.8
- Cc1ccc(S(=O)(=O)N=C2C=CC(=O)C=C2)cc1
    -0.5 | -0.145
- COc1ccc(Oc2nnc(C)c3ccccc23)cc1
    1.9 | -0.345
- O=C(CNS(=O)(=O)c1ccccc1)Nc1cccc(Cl)c1
    -0.8 | nt
- Cc1ccc2nc(SCc3c(C)c(C)cc(C)c3C)[nH]c2c1
    -0.9 | 0.175
- OC(c1ccccc1)c1nccc2ccccc12 (configuration not stated)
    0.4 | 0.1
- CCNC(=O)N1CCc2cccc(S(=O)(=O)N(C)C)c21
    nt | -0.125
- N#Cc1cnc2c(c1)CCCC2
    nt | 0.24
- O=C(CSc1nc2ccccc2c(=O)n1CC1CCC(C(=O)NCc2ccco2)CC1)NCc1ccccc1 (configuration not stated)
    nt | -0.315
- C=CCn1c(SCc2ccc(C(=O)NCCO)cc2)nc2sc3c(c2c1=O)CCCC3
    nt | -0.55
- Cc1oc(C(C)(C)C)cc1C(=O)NCc1ccc2c(c1)OCO2
    0.05 | 0.375
- O=C(COc1ccccc1)Nc1nc2ccccc2n1CCN1CCCCC1
    0.3 | nt
- Cc1c(C(=O)Oc2cccc(C(F)(F)F)c2)n(C)oc1=O
    0.05 | 0.735
- CCCc1cc(=O)oc2cc(C)cc(OCC(=O)OCC)c12
    1 | 6.28
- CC(C)CN1C(=O)N(c2ccc(Cl)c(Cl)c2)C(n2oc(=O)n(-c3ccc(Cl)c(Cl)c3)c2=O)C1(C)C (configuration not stated)
    nt | -0.26
- Cc1cc(C(=O)Nc2ccc(Cl)cc2)n(-c2ccccc2)n1
    -2.85 | -0.5
- COc1ccc(OC)c(S(=O)(=O)NCCc2ccccc2)c1
    2.4 | -0.985
- CC(Oc1ccc2ccccc2c1)C(=O)NN (configuration not stated)
    -0.05 | 0.1
- CCc1ccc(-c2cc(C)no2)cc1S(=O)(=O)N1CCc2ccccc21
    0.05 | 0.025
- CCOC(=O)N1CCN(C(=O)/C(=C\c2cccs2)NC(=O)c2ccc(OC)c(OC)c2)CC1
    nt | -0.325
- COC(=O)c1ccc(C(=O)Nc2ccc3nc(NC(=O)c4ccc(C(=O)OC)cc4)sc3c2)cc1
    nt | -0.04
- COC(=O)c1cc(C(=O)OC)c(=O)[nH]c1C
    0.7 | 11.4

Single records (already shown):
O=C(CSc1nc2ccccc2c(=O)n1CC1CCC(C(=O)NCc2ccco2)CC1)NCc1ccccc1 (configuration not stated) as listed: AID504770 = nt; Ba CapD inh = -0.315
CC(Oc1ccc2ccccc2c1)C(=O)NN (configuration not stated) as listed: AID504770 = -0.05; Ba CapD inh = 0.1
COC(=O)c1cc(C(=O)OC)c(=O)[nH]c1C as listed: AID504770 = 0.7; Ba CapD inh = 11.4

Screening data from PubChem BioAssay.
